KCNQ2 block = KCNQ2 channel blockers in CHO-K1 cells – cell-based, FluxOR thallium flux, B-score, primary screen (AID 2156). O88943. 20 min; active compounds read low; only compounds with negative scores are shown here; some inactives read as strong as hits. B-score at 10 µM. 310,000 tested, 1.1% active;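 active = fluorescence ratio B-score at most minus 3 library SDs, with starting brightness B-score within 2 library SDs, cut at about -5.5 in these data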
Target sequence (O88943 whole entry, looked up): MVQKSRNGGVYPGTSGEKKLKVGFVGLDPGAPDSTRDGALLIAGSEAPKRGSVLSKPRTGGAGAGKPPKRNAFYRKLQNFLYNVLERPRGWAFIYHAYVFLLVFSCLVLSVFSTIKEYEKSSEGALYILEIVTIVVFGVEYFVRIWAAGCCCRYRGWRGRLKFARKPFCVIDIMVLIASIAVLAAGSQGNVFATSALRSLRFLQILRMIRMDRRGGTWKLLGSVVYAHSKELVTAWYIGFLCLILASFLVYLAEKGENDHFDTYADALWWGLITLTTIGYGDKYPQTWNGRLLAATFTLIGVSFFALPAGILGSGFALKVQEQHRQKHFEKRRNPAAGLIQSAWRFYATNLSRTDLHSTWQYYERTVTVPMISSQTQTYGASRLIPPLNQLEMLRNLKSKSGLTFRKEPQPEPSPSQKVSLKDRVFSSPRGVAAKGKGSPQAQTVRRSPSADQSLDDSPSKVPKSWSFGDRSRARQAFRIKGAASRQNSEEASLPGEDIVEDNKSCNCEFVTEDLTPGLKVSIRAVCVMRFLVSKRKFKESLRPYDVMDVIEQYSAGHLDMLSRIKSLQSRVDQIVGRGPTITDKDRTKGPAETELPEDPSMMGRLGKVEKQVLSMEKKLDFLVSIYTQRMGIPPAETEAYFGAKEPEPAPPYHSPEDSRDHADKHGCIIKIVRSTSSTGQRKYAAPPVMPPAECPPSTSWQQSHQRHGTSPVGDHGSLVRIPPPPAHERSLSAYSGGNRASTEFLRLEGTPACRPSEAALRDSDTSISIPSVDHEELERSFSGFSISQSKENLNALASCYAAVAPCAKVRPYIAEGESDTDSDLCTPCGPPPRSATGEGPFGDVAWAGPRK
KCNQ2 block baseline = recorded beside KCNQ2 block, whose call it bears; B-score; measured here: initial fluorescence intensity artifact check;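 brightness before thallium and not channel activity; 0 = typical well and far values either way flag optical interference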
* marks the source's active call; other numbers are inactive results.

What do the screens show for `COc1cc2c(cc1OC)CN(C(=O)/C=C/c1cccs1)CC2`?
KCNQ2 block: inactive; KCNQ2 block baseline: -0.03

How did CC(=O)Nc1ccc(/C=N/NC(=O)c2cc(-c3ccco3)nc3ccccc23)cc1 do in these assays?
KCNQ2 block: inactive; KCNQ2 block baseline: -1.4

Results for CCOc1ncccc1C(=O)Nc1ccc(-c2ccc3nnc(C)n3n2)cc1 ?
KCNQ2 block: inactive; KCNQ2 block baseline: 0.22

Results for CC1=NN(c2ccccc2)C(=O)C1N=Nc1ccc(S(N)(=O)=O)cc1 (configuration not stated) ?
KCNQ2 block: inactive; KCNQ2 block baseline: 0.19

Results for O=C(Nc1ccc(Cc2ccncc2)cc1)C1CCC(N2C(=O)C3CCCCC3C2=O)CC1 (configuration not stated) ?
KCNQ2 block: inactive; KCNQ2 block baseline: -0.26

What do the screens show for `COc1ccc(N(C(=O)CNC(=O)c2cccs2)C(C(=O)NC2CCCC2)c2ccncc2)cc1` (configuration not stated)?
KCNQ2 block: inactive; KCNQ2 block baseline: 0.93

Results for Cc1cccc(NC(=O)N2CCCC2C(=O)NCc2cccs2)c1 (configuration not stated) ?
KCNQ2 block: inactive; KCNQ2 block baseline: 1.8

What do the screens show for `COc1ccc(NC(=O)CSc2cccc3cccnc23)c(OC)c1`?
KCNQ2 block: inactive; KCNQ2 block baseline: -1.5

What do the screens show for `CCOC(=O)N1CCN(C(=O)Cn2c(=O)sc3ccccc32)CC1`?
KCNQ2 block: inactive; KCNQ2 block baseline: 2.8

What do the screens show for `COCCOC(=O)c1c(C)oc2ccc(NS(=O)(=O)c3ccc(C(=O)O)cc3)cc12`?
KCNQ2 block: inactive; KCNQ2 block baseline: -1.5

What do the screens show for `CCOC(=O)/C(C#N)=C1/SC(CCO)C(=O)N1c1ccccc1` (configuration not stated)?
KCNQ2 block: inactive; KCNQ2 block baseline: -1.9

How did c1ccc(C2[C@H]3CN(Cc4cccnc4)[C@H](c4ccccc4)C34CC2(c2ccccc2)C4)cc1 (some centres not stated) do in these assays?
KCNQ2 block: inactive; KCNQ2 block baseline: -0.57

How did COc1ccc2c(ccc[n+]2CC(=O)c2ccccc2)c1 do in these assays?
KCNQ2 block: inactive; KCNQ2 block baseline: 1.2

How did Cc1ccc(Oc2ccccc2/C=C2\SC(=O)N(C)C2=O)cc1 do in these assays?
KCNQ2 block: inactive; KCNQ2 block baseline: 1.3

What do the screens show for `Cc1ccc(-c2nnn(CC(=O)N3CCN(c4ccccc4)CC3)n2)o1`?
KCNQ2 block: inactive; KCNQ2 block baseline: -0.16

How did O=C(CSc1nnnn1-c1ccccc1)NC(=O)Nc1ccc2c(c1)OCCO2 do in these assays?
KCNQ2 block: inactive; KCNQ2 block baseline: 0.39

Results for COc1ccc(-c2cc3c(=O)n(CC(=O)NCCCN4CCC(Cc5ccccc5)CC4)ncn3n2)cc1 ?
KCNQ2 block: inactive; KCNQ2 block baseline: -0.83

What do the screens show for `CC1(C)Cc2c(sc3c2c(=N)n(Cc2ccco2)c(=O)n3Cc2ccc(Cl)cc2)CO1`?
KCNQ2 block: inactive; KCNQ2 block baseline: -0.39

Results for Nc1ccc(S(=O)(=O)c2ccccc2)nc1 ?
KCNQ2 block: inactive; KCNQ2 block baseline: -0.71

What do the screens show for `CSCCC(Nc1ccc(S(=O)(=O)N2CCOCC2)cc1[N+](=O)[O-])C(=O)OCC(=O)N(C(C)C)C(C)C` (configuration not stated)?
KCNQ2 block: inactive; KCNQ2 block baseline: 0.3

Results for CC(/C=C/c1ccc(N(C)C)cc1)=N\N=C1\NC(=O)CC(C(=O)Nc2ccccc2)S1 (configuration not stated) ?
KCNQ2 block: inactive; KCNQ2 block baseline: -0.06

What do the screens show for `CCCCC(=O)Nc1cc(-c2nc3ncccc3o2)ccc1C`?
KCNQ2 block: inactive; KCNQ2 block baseline: -0.43

How did N#CCCN(Cc1ccccc1)C(=O)Nc1ccccc1 do in these assays?
KCNQ2 block: inactive; KCNQ2 block baseline: -1.2

What do the screens show for `Cc1cc(Cl)c(S(N)(=O)=O)cc1OCC(=O)NC1CCCCC1`?
KCNQ2 block: inactive; KCNQ2 block baseline: -2.8

Structures shown so far that have a halogen (2):
What do the screens show for `CC1(C)Cc2c(sc3c2c(=N)n(Cc2ccco2)c(=O)n3Cc2ccc(Cl)cc2)CO1`?
KCNQ2 block: inactive; KCNQ2 block baseline: -0.39

What do the screens show for `Cc1cc(Cl)c(S(N)(=O)=O)cc1OCC(=O)NC1CCCCC1`?
KCNQ2 block: inactive; KCNQ2 block baseline: -2.8

(more compounds)
What do the screens show for `CCOc1ccc(NC(=NCc2ccc3c(c2)OCO3)SC2CC(=O)N(c3ccc(OCC)cc3)C2=O)cc1` (configuration not stated)?
KCNQ2 block: inactive; KCNQ2 block baseline: -0.66

Results for Cc1ccc(S(=O)(=O)CC(=O)N2CCCC2)cc1 ?
KCNQ2 block: inactive; KCNQ2 block baseline: 1.4

How did O=C(/C=C/c1ccccc1)NNC(=O)c1cccc(Cl)c1 do in these assays?
KCNQ2 block: inactive; KCNQ2 block baseline: 0.49

What do the screens show for `CCN(CC)S(=O)(=O)c1cccc(-c2nnc(SCC(N)=O)n2CCc2ccccc2)c1`?
KCNQ2 block: inactive; KCNQ2 block baseline: 0.6

How did C=CCN1C2CCCC1CC(NC(=S)Nc1cccc(OC)c1)C2 (configuration not stated) do in these assays?
KCNQ2 block: inactive; KCNQ2 block baseline: 0.32

How did C=CCOc1ccc(/C=C/C(=O)OCC(=O)N(C)CC(=O)Nc2ccc(F)cc2)cc1 do in these assays?
KCNQ2 block: inactive; KCNQ2 block baseline: 0.14

What do the screens show for `O=C(Nc1nc(-c2ccccc2)cs1)c1ccc(N2CCOCC2)c([N+](=O)[O-])c1`?
KCNQ2 block: -7.8*; KCNQ2 block baseline: 1.6*

Results for O=C(CSc1nnc(CNc2ccc(Cl)cc2)o1)Nc1nc2ccccc2s1 ?
KCNQ2 block: inactive; KCNQ2 block baseline: 0.21

How did O=C(Nc1ccccc1N1CCOCC1)c1ccc(Br)o1 do in these assays?
KCNQ2 block: inactive; KCNQ2 block baseline: 0.52

How did O=C(O)c1ccc(NS(=O)(=O)c2cc(Cl)sc2Cl)cc1 do in these assays?
KCNQ2 block: inactive; KCNQ2 block baseline: 0.67

Results for Cc1ccc(S(=O)(=O)Oc2ccc(/C=C(/NC(=O)c3ccccc3)C(=O)Nc3ccccc3)cc2)cc1 ?
KCNQ2 block: inactive; KCNQ2 block baseline: 0.36

What do the screens show for `Cc1cccc(CN2C(=O)N/C(=C/c3cc(C)n(-c4cc(C)ccn4)c3C)C2=O)c1`?
KCNQ2 block: inactive; KCNQ2 block baseline: -0.82

How did COc1ccc(CCNC(=O)C2CCN(S(=O)(=O)N3CCOCC3)CC2)cc1OC do in these assays?
KCNQ2 block: inactive; KCNQ2 block baseline: -0.58

Results for CC(=O)N1CCOCCOCCN(C(C)=O)CCOCC1 ?
KCNQ2 block: inactive; KCNQ2 block baseline: 1.5

How did CCOC(=O)C1CCN(C(=O)CCc2c(C)nc3cc(-c4ccc(OC)cc4OC)nn3c2C)CC1 do in these assays?
KCNQ2 block: inactive; KCNQ2 block baseline: 0.12

How did OCCN(CCO)CC(O)COc1ccc(C23CC4CC(CC(C4)C2)C3)cc1 (configuration not stated) do in these assays?
KCNQ2 block: inactive; KCNQ2 block baseline: -0.5

What do the screens show for `COc1cc(NC(=O)COC(=O)C=C(C)C)c(C)cc1[N+](=O)[O-]`?
KCNQ2 block: inactive; KCNQ2 block baseline: 1.1

Results for CC(C)(C)NS(=O)(=O)c1ccc(NS(=O)(=O)c2ccc(F)cc2)cc1 ?
KCNQ2 block: inactive; KCNQ2 block baseline: 0.47

How did O=C(O)c1ccc2c(=O)n3c(nc2c1)/C(=C/c1cccc(Cl)c1Cl)CC3 do in these assays?
KCNQ2 block: inactive; KCNQ2 block baseline: -0.33

How did O=C(NCCN1CCOCC1)c1cc2cc(Br)ccc2oc1=O do in these assays?
KCNQ2 block: inactive; KCNQ2 block baseline: -2.2

Results for CCn1cc(CN2CCCC(C(=O)c3ccc(-c4ccccc4)cc3)C2)cn1 (configuration not stated) ?
KCNQ2 block: inactive; KCNQ2 block baseline: -0.01

Results for Cc1ccc([N+](=O)[O-])cc1S(=O)(=O)Nc1cccc(-c2ccc(N3CCCC3)nn2)c1 ?
KCNQ2 block: inactive; KCNQ2 block baseline: -1.3

What do the screens show for `CC(C)(C)C(=O)NC1CC2CCCC(C1)N2C(=O)Nc1ccccc1Cl` (configuration not stated)?
KCNQ2 block: inactive; KCNQ2 block baseline: 0.13

What do the screens show for `Cc1cc([N+](=O)[O-])ccc1NCc1ccccc1`?
KCNQ2 block: inactive; KCNQ2 block baseline: -1.5

What do the screens show for `COc1ccc(/C=C2\N=C(SC)NC2=O)cc1`?
KCNQ2 block: inactive; KCNQ2 block baseline: 0.13

What do the screens show for `Cc1cccc(NC(=O)NCCN2CCCCC2)c1`?
KCNQ2 block: inactive; KCNQ2 block baseline: 0.13

What do the screens show for `O=C(c1ccc(N2CCOCC2)c([N+](=O)[O-])c1)N1CCCC(C(F)(F)F)C1` (configuration not stated)?
KCNQ2 block: inactive; KCNQ2 block baseline: -1

How did Cc1nc(N2CCN(c3ccc(Cl)cc3)CC2)[nH]c(=O)c1C do in these assays?
KCNQ2 block: inactive; KCNQ2 block baseline: -1

What do the screens show for `CC12CN3CC(C)(CN(C1)C3c1ccc(Cl)cc1Cl)C2O` (configuration not stated)?
KCNQ2 block: inactive; KCNQ2 block baseline: 2.1

What do the screens show for `Cc1cccc(-c2nc3c(s2)CCc2onc(-c4ccc(Br)cc4)c2-3)c1`?
KCNQ2 block: inactive; KCNQ2 block baseline: 1.1

How did COC(=O)c1ccccc1NC(=O)CSc1ccccc1 do in these assays?
KCNQ2 block: inactive; KCNQ2 block baseline: 0.62

Results for Nn1c(SCC(=O)Nc2cccc(F)c2)nnc1C1CCCCC1 ?
KCNQ2 block: inactive; KCNQ2 block baseline: -0.79

What do the screens show for `CC(C)OC(=O)C(C)Nc1n[nH]c(=S)[nH]c1=O` (configuration not stated)?
KCNQ2 block: inactive; KCNQ2 block baseline: 1.6

Results for COc1cnc(-c2ccccn2)nc1Oc1ccccc1Cl ?
KCNQ2 block: inactive; KCNQ2 block baseline: 1.1

Results for CCc1nc(SCc2nc3ccccc3[nH]2)c2oc3ccccc3c2n1 ?
KCNQ2 block: inactive; KCNQ2 block baseline: -0.2

What do the screens show for `COCCN(C(=O)c1ccco1)c1nc(-c2ccccc2)cs1`?
KCNQ2 block: inactive; KCNQ2 block baseline: -2.3

What do the screens show for `COc1ccc(NC(=O)c2ccco2)cc1S(=O)(=O)N1CCOCC1`?
KCNQ2 block: inactive; KCNQ2 block baseline: 0.91

How did Cc1ccc([N+](=O)[O-])cc1S(=O)(=O)NCC1COc2ccccc2O1 (configuration not stated) do in these assays?
KCNQ2 block: inactive; KCNQ2 block baseline: -2.2

Results for CCOc1ccc(NS(=O)(=O)c2ccc(C(=O)N(C)CC(=O)Nc3ccc(OC)cc3)cc2)cc1 ?
KCNQ2 block: inactive; KCNQ2 block baseline: 2.2

How did Cc1cc(C=O)c(C)n1-c1ccc(NC2CCCCC2)c([N+](=O)[O-])c1 do in these assays?
KCNQ2 block: inactive; KCNQ2 block baseline: 2.7

How did O=C(c1cc(N2C(=O)C3C4CCC(C4)C3C2=O)ccc1Cl)N1CCCCCC1 (configuration not stated) do in these assays?
KCNQ2 block: inactive; KCNQ2 block baseline: 0.65

What do the screens show for `CCOc1ccccc1NC(=S)Nn1cnnc1`?
KCNQ2 block: inactive; KCNQ2 block baseline: 0.66

What do the screens show for `O=C(NCc1ccc(N2CCCC2=O)cc1)c1cn(Cc2ccccc2)nn1`?
KCNQ2 block: inactive; KCNQ2 block baseline: 0.77

Results for Cc1cc(C(=O)OCC(=O)N(CC(C)C)c2c(N)n(Cc3ccccc3)c(=O)[nH]c2=O)c2ccccc2n1 ?
KCNQ2 block: inactive; KCNQ2 block baseline: 0.11

What do the screens show for `COC(=O)c1ccc(C2C(C#N)=C(N)Oc3cc(N)ccc32)cc1` (configuration not stated)?
KCNQ2 block: inactive; KCNQ2 block baseline: -0.22

How did CCc1c(O)nc2sc3ccccc3n2c1=O do in these assays?
KCNQ2 block: inactive; KCNQ2 block baseline: -0.88

How did CN(C)CCn1ccc(O)c(Cc2ccc(Cl)cc2)c1=O do in these assays?
KCNQ2 block: inactive; KCNQ2 block baseline: -1.2

By substructure, the entries above containing an aryl thioether with sulfur outside any ring
What do the screens show for `COc1ccc(NC(=O)CSc2cccc3cccnc23)c(OC)c1`?
KCNQ2 block: inactive; KCNQ2 block baseline: -1.5

How did O=C(CSc1nnnn1-c1ccccc1)NC(=O)Nc1ccc2c(c1)OCCO2 do in these assays?
KCNQ2 block: inactive; KCNQ2 block baseline: 0.39

What do the screens show for `CCN(CC)S(=O)(=O)c1cccc(-c2nnc(SCC(N)=O)n2CCc2ccccc2)c1`?
KCNQ2 block: inactive; KCNQ2 block baseline: 0.6

Results for O=C(CSc1nnc(CNc2ccc(Cl)cc2)o1)Nc1nc2ccccc2s1 ?
KCNQ2 block: inactive; KCNQ2 block baseline: 0.21

How did COC(=O)c1ccccc1NC(=O)CSc1ccccc1 do in these assays?
KCNQ2 block: inactive; KCNQ2 block baseline: 0.62

Results for Nn1c(SCC(=O)Nc2cccc(F)c2)nnc1C1CCCCC1 ?
KCNQ2 block: inactive; KCNQ2 block baseline: -0.79

Results for CCc1nc(SCc2nc3ccccc3[nH]2)c2oc3ccccc3c2n1 ?
KCNQ2 block: inactive; KCNQ2 block baseline: -0.2

Screening results: PubChem BioAssay, Johns Hopkins Ion Channel Center

The list is partial. The share of hits here may be higher or lower than overall.
